Screens from PubChem BioAssay.
Mtb hypoxia inh: Mtb hypoxia fluorescent reporter inhibition; fluorescence inhibition, % (no concentration beside the values); M. tuberculosis hypoxia-regulated fluorescent reporter, fluorescence; hit rate 0.1% among 300,000;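 active = 35 to 45% if threefold the growth effect, above 45% if 1.5-fold the growth effect; inactive = the rest, general growth blockers included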;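 note: wells of about 50 µL received 100 nL stock; 0% = vehicle wells and 100% = reference inhibitor wells; whole bacteria with a GFP reporter of the hypoxia response; strong numbers were not always called active; many hits fall short of the cut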
Bead autofluor: compound fluorescence in toxin protease inhibitor counterscreen | fluorescence intensity (concentration not given with the values) | compound autofluorescence counterscreen, microsphere flow cytometry; active compounds read high | AID 624483 | hit rate 3.1% among 360,000;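 active = at least 3 SD above the mean of all compounds, about 16000 in these data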;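 note: 100 nL of 1 mM stock went into each well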
BJeLR viability: BJeLR cell viability loss | BJeLR (HRASV12) viability, CellTiter-Glo ATP luminescence, 48 h; reference of the scale not given here | inhibition, % (test concentration not listed) | hit rate 0.17% among 300,000 | AID 1554;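 active = replicate mean above 50%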;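 note: 50 nL library stock added to about 25 µL; numbers are from one replicate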
PrP 5UTR inh: suppresses PrP 5' UTR mRNA reporter expression; inhibition, % (no concentration beside the values); cell-based PrP 5' UTR mRNA reporter, plate reader; AID 488862; hit rate 0.35% among 340,000;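 active = every replicate at 50% or more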;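 note: 0 = median of the neutral control wells; tested in H4 reporter cells; numbers are from one replicate; inactives centre near -14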
RN4220 kill: kills Staphylococcus aureus RN4220. S. aureus RN4220 growth, OD600, 16 h. inhibition, % (test concentration not listed). hit rate 0.33% among 330,000. AID 1259311;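 active = z-score of -3 or lower and OD600 up to 0.18 on both plates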;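 note: plate controls were untreated cells for no effect and reference antibiotic for full effect; stock transfer was 100 nL into about 80 µL; one replicate is shown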
Sa ugtP lethal: kills S. aureus RN4220 lacking UgtP. hit rate 0.54% among 330,000. S. aureus RN4220 ugtP deletion, OD600 growth, 16 h; some inactives read as strong as hits. growth inhibition, % (no concentration beside the values). AID 1259309;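 active = z-score under -3 and OD600 up to 0.15 on both plates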;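 note: plate controls were untreated wells for no effect and antibiotic for full effect; wells of about 80 µL received 100 nL stock; the first replicate is given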
Mtb hypoxia inh growth: recorded beside Mtb hypoxia inh, whose call it bears; growth inhibition, %; measured here: M. tuberculosis growth (absorbance);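 0% = vehicle and 100% = reference antibiotic; read after six days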
Active calls of the source: *; x = no result given.

no.	SMILES	Mtb hypoxia inh	Mtb hypoxia inh growth	Bead autofluor	BJeLR viability	PrP 5UTR inh	RN4220 kill	Sa ugtP lethal
1	O=C1c2c([N+](=O)[O-])cc([N+](=O)[O-])cc2S(=O)N1Cc1ccccc1 (configuration not stated)	10	3	3265	-2	-9	7.6	21
2	CCCCn1nnc(NC(=O)c2ccc(-c3ccccc3)cc2)n1	1	-10	3226	11	-17	4.9	2
3	Cc1cnc(C(=O)OCC(=O)c2ccc(Cl)cc2)cn1	17	5	5970	-10	-10	1.4	0
4	Cc1cccc(C)c1NC(=S)N(Cc1cccs1)C1CCCC1	4	7	3782	-6	-11	15	5
5	COc1ccc(NC(=O)N2c3ccccc3CC2C)cc1OC (configuration not stated)	-10	7	9172	-7	-28	2.2	-3
6	O=C(OCc1cnc(Cl)s1)c1ccc(Cl)cc1	x	x	2771	-2	-32	5.3	11
7	CSc1cccc(NC(=O)NCc2cccc(CNC(=O)Nc3cccc(SC)c3)c2)c1	8	7	4353	7	-37	0.7	-1
8	Cc1nc(SCC(=O)Nc2c(C)n(C)n(-c3ccccc3)c2=O)c(C#N)c(C)c1C	7	15	8840	x	1	0.8	3
9	O=C(Nc1cc(S(=O)(=O)N2CCCCC2)ccc1Cl)C1COc2ccccc2O1 (configuration not stated)	1	4	5847	x	-6	-3.0	4
10	COc1ccc(CN2C(=NC(=O)CCc3ccccc3)SC3CS(=O)(=O)CC32)cc1 (configuration not stated)	13	0	6471	14	-18	1.4	3
11	COc1ccc2c(Cl)c(C(=O)NN=C3CCCC(=O)C3)sc2c1	-4	-2	x	x	x	-3.1	-6
12	Cc1ccc(S(=O)(=O)N2CCN(CC(=O)N/N=C\c3ccncc3)CC2)cc1	x	x	4921	11	-12	x	x
13	Cc1oc(-c2ccccc2F)nc1CN1CCC(C(=O)NCc2ccco2)CC1	7	4	19776*	3	-11	4.2	1
14	S=c1[nH]nc(-c2ccncc2)n1/N=C/c1ccccc1	x	x	2520	-3	-13	x	x
15	Cc1ccc(NC(=O)c2ccc3nccnc3c2)c(C)c1	10	10	5597	-9	-31	5.5	4
16	CCOC(=O)C1CCN(C(=O)c2ccccc2Oc2ccccc2)CC1	14	10	2292	-2	-21	20	-6
17	CN1C(=O)C(C(=O)NC(C)(C)C)C2c3ccccc3OC13CCCCC23 (configuration not stated)	1	4	5969	-4	-11	0.8	2
18	Cc1oc2cc(OCc3cnn(-c4ccccc4)c3)ccc2c(=O)c1Oc1ccccc1F	1	8	2271	-6	-5	3.3	-1
19	Cc1cc(CN(C)C(=O)CCc2nnc(Cc3cccc(C(F)(F)F)c3)o2)on1	6	1	3384	-2	-45	-2.5	-3
20	O=[N+]([O-])NC1=NCCN1Cc1ccc(Cl)nc1	6	-5	5915	-5	-15	11	59
21	Cc1ccc(OC(C)C(=O)N(C)Cc2ccccc2)c([N+](=O)[O-])n1 (configuration not stated)	-6	0	5067	-4	-16	-2.6	-5
22	COc1ccccc1N1CCN(C(=O)CSc2nc3ccccc3nc2N2CCC(C)CC2)CC1	0	1	5342	-13	-10	-3.1	-3
23	COc1ccc(CN2CCN(Cc3ccc(C(F)(F)F)cc3)CC2)c(OC)c1	-2	6	3782	8	-13	1.7	-1
24	Cc1cc(/C=c2\sc3nc4ccccc4n3c2=O)c(C)n1-c1ccc(C(=O)O)cc1	x	x	2682	1	-35	x	x
25	COC(=O)Cn1nnc(N2CCOCC2)n1	10	7	5201	4	-24	4.1	7
26	C(=N\Nc1ccc2nncn2n1)/c1ccccn1	x	x	5686	0	-9	x	x
27	O=C(COC(=O)Cn1nnc2ccccc21)NC1CCCC1	1	-2	5581	-14	-28	2.7	3
28	O=C(COc1ccc(C(=S)N2CCOCC2)cc1Cl)Nc1ccccc1Cl	-1	7	4070	-3	-22	11	6
29	Nc1nc(SCC(=O)N2CCOCC2)[nH]c(=O)c1-c1ccccc1	-6	4	2576	11	1	1.4	4
30	S=C(NCC1COc2ccccc2O1)Nc1ccc(Br)cc1 (configuration not stated)	2	5	2927	-2	-20	-3.2	-12

Copied from above, entries 17 to 19
no.	SMILES	Mtb hypoxia inh	Mtb hypoxia inh growth	Bead autofluor	BJeLR viability	PrP 5UTR inh	RN4220 kill	Sa ugtP lethal
17	CN1C(=O)C(C(=O)NC(C)(C)C)C2c3ccccc3OC13CCCCC23 (configuration not stated)	1	4	5969	-4	-11	0.8	2
18	Cc1oc2cc(OCc3cnn(-c4ccccc4)c3)ccc2c(=O)c1Oc1ccccc1F	1	8	2271	-6	-5	3.3	-1
19	Cc1cc(CN(C)C(=O)CCc2nnc(Cc3cccc(C(F)(F)F)c3)o2)on1	6	1	3384	-2	-45	-2.5	-3

Further entries
no.	SMILES	Mtb hypoxia inh	Mtb hypoxia inh growth	Bead autofluor	BJeLR viability	PrP 5UTR inh	RN4220 kill	Sa ugtP lethal
31	COc1cc(SC)ccc1C(=O)NNC(=O)c1cc(C)oc1C	9	0	6905	41	-80	5.2	1
32	CN(CCc1nc2ccc(Cl)cc2[nH]1)Cc1nc(CC2CC2)no1	12	-3	4705	-3	-17	1.6	-2
33	CCOCCCNC(=O)C(NC(=O)Cc1c[nH]c2ccccc12)c1ccccc1 (configuration not stated)	-1	2	4221	0	-3	9.0	4
34	CCN(C(=O)CSc1ncccc1C(=O)O)C1CCCCC1	-6	-1	4814	-10	-19	1.8	5
35	COc1cc(OC)c(S(=O)(=O)N2CCCCC2)cc1S(=O)(=O)N1CCCCC1	-2	6	3133	-2	-16	-9.6	0
36	Cc1nnc(NC(=O)Nc2ccc(Cl)c(Cl)c2)s1	-3	8	9870	2	-28	-2.9	-14
37	Cc1ccc(CNC(=O)Nc2ccc(F)cc2F)n1C	8	4	3297	-4	-25	-2.2	6
38	Cc1onc(-c2ccccc2)c1C(=O)Nc1ccncc1	8	5	6475	7	2	9.2	11
39	CC1=C(c2ccccc2)SC2=NCCN21	-8	-4	3128	0	11	2.4	-5
40	COc1ccc(-c2csc(NC3OC(=O)c4ccccc43)n2)cc1 (configuration not stated)	0	4	3984	-1	-29	17	12
41	COc1ccccc1C(=O)OCC(=O)Nc1cc(S(=O)(=O)N2CCOCC2)ccc1N1CCCC1	-8	-3	9492	6	-14	5.7	10
42	COc1ccc(OC)c(C2CC(=O)N3CN(c4cccc(Cl)c4C)CSC3=C2C#N)c1 (configuration not stated)	1	6	6059	2	1	-13	-5
43	CCc1ccc(C=Nn2c(C)cc(C)c(C#N)c2=O)cc1	6	2	x	x	x	2.9	12
44	CCCCC(=O)N(Cc1ccc(F)cc1)C1CCS(=O)(=O)C1 (configuration not stated)	12	-1	5173	-3	-4	2.8	-3
45	CCOCCCNS(=O)(=O)c1cc2[nH]c3c(c2cc1C)C(=O)CC(C)(C)C3	15	3	3943	2	-14	2.1	3

One compound at a time (already shown). Values in the order: Mtb hypoxia inh | Mtb hypoxia inh growth | Bead autofluor | BJeLR viability | PrP 5UTR inh | RN4220 kill | Sa ugtP lethal
Cc1nnc(NC(=O)Nc2ccc(Cl)c(Cl)c2)s1 reads -3 | 8 | 9870 | 2 | -28 | -2.9 | -14
CCN(C(=O)CSc1ncccc1C(=O)O)C1CCCCC1 reads -6 | -1 | 4814 | -10 | -19 | 1.8 | 5

(more compounds)
The line under a structure holds: Mtb hypoxia inh, Mtb hypoxia inh growth, Bead autofluor, BJeLR viability, PrP 5UTR inh, RN4220 kill, Sa ugtP lethal
46) Cc1ccc(S(=O)(=O)CCc2nnc(NC(=O)c3cnccn3)s2)cc1
 : x, x, 2799, -4, -13, -2.5, 8
47) Cc1ccccc1C(=O)c1c[nH]c(C(=O)NCC2CCCO2)c1 (configuration not stated)
 : x, x, 4923, 1, -16, 5.2, -4
48) COc1ccc(C=NNC(=O)CNC(=O)C(c2ccccc2)c2ccccc2)cc1[N+](=O)[O-]
 : -1, -2, x, x, x, 1.7, 2
49) O=C(C1=COCCO1)N1CCN(C(c2ccccc2)c2ccccc2)CC1
 : x, x, 2489, -4, -8, 8.8, 5
50) COCCCNC(=O)CS(=O)(=O)Cc1nc(-c2cccc(OC)c2)oc1C
 : 3, 0, 20516*, -5, -24, 1.0, 2
51) Cc1cc2ccccc2n2c(SCC(=O)N3CCc4ccccc4C3)nnc12
 : x, x, 3140, 0, -11, 2.3, 2
52) Cc1ccc(S(=O)(=O)N2CCCC(C(=O)Nc3cccnc3)C2)cc1 (configuration not stated)
 : 17, 9, 9305, -1, -34, 2.0, 4
53) Cc1ccc(C(=O)N(Cc2sccc2C)C2CCS(=O)(=O)C2)cc1 (configuration not stated)
 : -11, -15, 5930, 3, 1, -1.9, -4
54) CCn1c(COc2ccccc2C)nnc1SCC(=O)OC
 : 8, 5, 9951, 13, -35, 16, -10
55) COc1ccc(C(CNC(=O)Cc2ccc3ccccc3c2)N(C)C)cc1 (configuration not stated)
 : 14, 6, 3275, -4, -13, 5.9, 7
56) O=C(CSc1ncn[nH]1)OCN1C(=O)c2ccccc2C1=O
 : 0, -1, 15813, -10, -20, 3.3, 5
57) O=C(CSc1ncccn1)Nc1cc(Cl)ccc1[N+](=O)[O-]
 : -6, -2, 4441, 13, -11, 4.8, -8
58) CC(C(=O)Nc1cccc([N+](=O)[O-])c1)N(c1ccccc1)S(C)(=O)=O (configuration not stated)
 : 6, 8, 5462, 0, -8, -1.6, 6
59) CCOC(=O)c1ccc(NC(=O)/C=C/c2cccs2)cc1
 : -5, 11, 2622, -2, -71, 1.4, -20
60) O=C(C1CCN(S(=O)(=O)Cc2ccccc2)CC1)N1CCCc2ccccc21
 : x, x, 3475, 12, -10, -3.3, -5
61) CCOC(=O)C(=O)Nc1ccc2c(c1)OCO2
 : x, x, 4660, 2, -22, 2.1, 7
62) O=C(O)c1ccc(S(=O)(=O)N2CCN(c3ccccn3)CC2)cc1
 : 8, -6, 3921, 1, -7, 5.2, 6
63) CC(C)c1ccc(CNC(=O)CSCC(=O)Nc2ccc3ccccc3c2)cc1
 : 3, 7, 11915, 0, -26, 7.8, 24
64) O=C1C(c2ccncc2)=C(O)c2ccccc21
 : x, x, 4881, -1, -23, 2.4, -3
65) Nc1ncnc2c1ncn2[C@H]1CC[C@@H](CO)O1
 : 11, 18, 5932, x, 5, 2.7, -5
66) Cc1nc(NC(=O)COC(=O)CCS(=O)(=O)c2ccccc2Cl)c(Cl)cc1Cl
 : 6, 18, 20461*, 8, -17, 4.8, -1
67) Cc1cc2c(c(/C=C/C(=O)c3ccccc3)c1)OC1(C=C2)Oc2ccccc2C(=O)N1C (configuration not stated)
 : 19, -1, 4644, -21, -27, 4.3, 0
68) CSCC(=O)NC1CCCc2c1cnn2-c1cc(F)cc(F)c1 (configuration not stated)
 : 0, 10, 4593, -1, -35, 1.4, 6

Another view of some results above:
[32] CN(CCc1nc2ccc(Cl)cc2[nH]1)Cc1nc(CC2CC2)no1
[31] COc1cc(SC)ccc1C(=O)NNC(=O)c1cc(C)oc1C
screen / no.	32	31
Mtb hypoxia inh	12	9
Mtb hypoxia inh growth	-3	0
Bead autofluor	4705	6905
BJeLR viability	-3	41
PrP 5UTR inh	-17	-80
RN4220 kill	1.6	5.2
Sa ugtP lethal	-2	1
